PKD1 inh: inhibitors of human PKD1 kinase, biochemical, fluorescence polarization; Serine/threonine-protein kinase D1 (Homo sapiens), Q15139; PKD1 kinase fluorescence polarization assay; inhibition, %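 (about 10 µM by stock and volumes)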; 200,000 compounds, 0.056% hits; AID 797, 2007;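 active means inhibition of 50% or more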;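 further: controls were vehicle for no effect and a reference inhibitor for full effect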
Insulin prom inh: inhibitors of insulin promoter-driven GFP, primary screen, imaging, TRM-6 cells (human fetal islet line), eGFP reporter, cell count; reporter expression induced with tamoxifen; inhibition, % at 2 µM; 130,000 compounds, 0.9% hits; AID 1273, 2008;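 active means inhibition above the mean plus 3 SD, with well images judged a real hit on visual review, cut at about 60% in these data, passing the limit was not always enough; inconclusive means inhibition over the cutoff but images rejected on review; inactive means inhibition not above the cutoff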
RGS16-Gao: modulators of RGS16 binding to Galphao, primary screen, biochemical, human proteins, multiplexed bead flow cytometry; Regulator of G-protein signaling 16 (Homo sapiens) + Guanine nucleotide-binding protein …; bead-based flow cytometry RGS16-Galphao binding, fluorescence; actives lie on both sides; binding response (% of control), % at 10 µM; 220,000 compounds, 0.38% hits;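 active means below 25% or above 175%, edge rows of some plates excepted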;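 further: Galphao activated by GDP with aluminum fluoride before binding; 100% = wells without compound and 0% = beads without RGS; some results beyond the cut were filed as inactive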
Target sequence (O15492 whole entry, looked up): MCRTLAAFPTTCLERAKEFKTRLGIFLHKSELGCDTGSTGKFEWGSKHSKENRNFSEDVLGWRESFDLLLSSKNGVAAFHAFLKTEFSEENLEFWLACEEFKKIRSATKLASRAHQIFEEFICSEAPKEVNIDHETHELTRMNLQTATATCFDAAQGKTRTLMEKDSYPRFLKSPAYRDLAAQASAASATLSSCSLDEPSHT
Target sequence (P09471 whole entry, looked up): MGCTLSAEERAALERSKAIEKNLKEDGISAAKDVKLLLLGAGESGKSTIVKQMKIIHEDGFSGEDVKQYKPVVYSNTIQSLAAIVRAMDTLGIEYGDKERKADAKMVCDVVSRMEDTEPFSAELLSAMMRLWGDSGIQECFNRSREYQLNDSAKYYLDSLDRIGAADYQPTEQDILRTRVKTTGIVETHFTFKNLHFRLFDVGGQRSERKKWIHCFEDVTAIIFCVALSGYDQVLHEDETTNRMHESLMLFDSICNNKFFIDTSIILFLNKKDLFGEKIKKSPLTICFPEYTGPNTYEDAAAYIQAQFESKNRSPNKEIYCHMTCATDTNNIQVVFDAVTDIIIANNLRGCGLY
HSV replic up: enhancers of HSV replication in host cells, fold increase, host cell viability; HSV replication augmentation in cells; maximum fold increase; 220,000 compounds, 0.005% hits; AID 1956, 2009;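 active means peak rise of 1.5-fold or more in the series; inconclusive means self-fluorescent or not available for retest; tested in PC3 cells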;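 further: first round at 10 µM; read as green reporter fluorescence; hits show the peak of a series up to 25 µM; 1 = signal of infected wells without compound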
GALR2 ag: GALR2 receptor agonists, primary screen, cell-based; Galanin receptor type 2 (Homo sapiens), O43603; GALR2-expressing cells, agonist activation read-out; activation, %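 (tested at 5 µM)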; 140,000 compounds, 0.48% hits;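 active means above mean plus 3 SD of all compounds, about 5% in these data, not always enough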;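 further: 0% = vehicle buffer wells and 100% = reference agonist at full effect; tested in CHO reporter cells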
Target sequence (O43603 whole entry, looked up): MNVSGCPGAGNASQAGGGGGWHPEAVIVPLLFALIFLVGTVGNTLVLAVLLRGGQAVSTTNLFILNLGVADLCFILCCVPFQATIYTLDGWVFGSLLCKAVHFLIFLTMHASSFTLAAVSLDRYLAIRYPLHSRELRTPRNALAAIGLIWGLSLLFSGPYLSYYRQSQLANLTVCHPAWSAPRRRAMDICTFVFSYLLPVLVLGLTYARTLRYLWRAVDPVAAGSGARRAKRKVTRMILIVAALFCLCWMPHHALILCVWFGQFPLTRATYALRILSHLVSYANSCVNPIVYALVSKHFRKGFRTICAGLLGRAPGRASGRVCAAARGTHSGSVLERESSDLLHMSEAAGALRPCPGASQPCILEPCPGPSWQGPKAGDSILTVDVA
Insulin prom inh cell count: further read-out of Insulin prom inh, marked with its call; normalized cell count, %; measured here: cell count, toxicity; reference of the scale not given here;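 cells exposed to compound for 48 h; stained nuclei by imaging scaled within each plate; lower means fewer cells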
HSV replic up primary fold: also measured in HSV replic up; calls as there; fold increase; compound at 10 µM; measured here: primary screen fold increase 10 uM; tested in PC3 cells;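 GFP signal in the first replicate; 1 = infected wells without compound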
An asterisk follows results filed as active; i = inactive; u = inconclusive; x = no result given.

compound,PKD1 inh,Insulin prom inh,Insulin prom inh cell count,RGS16-Gao,HSV replic up,HSV replic up primary fold,GALR2 ag
CCOC(=O)c1ccc(NC(=O)Nc2ccc3c(c2)OCCO3)cc1,3,3,109,100,i,0.78,-0.4
Cc1cccc(-n2c(C)cc(/C=C3\NC(=O)NC3=O)c2C)c1,x,x,x,92,i,0.89,x
CC(NCc1ccccc1)C1COc2ccccc2O1 (stereo not given),-5,-46,128,103,i,0.89,-1.3
O=S(=O)(c1ccc(F)cc1)N1CCN(Cc2ccccc2C(F)(F)F)CC1,2,9,82,109,i,0.81,-1.0
CCCC(=O)c1c[nH]c(C(=O)N2CCOCC2)c1,7,x,x,103,i,1.1,x
CN(C)C(CNS(=O)(=O)c1ccc(F)cc1)c1cccnc1 (stereo not given),-4,x,x,107,i,0.88,-2.4
O=C(Nc1cccnc1)OC1CCCC1,-9,x,x,108,i,0.87,x
Cn1c(=O)oc2cc(S(=O)(=O)N3CCCC(C(=O)NC4CCCc5ccccc54)C3)ccc21 (stereo not given),13,x,x,107,i,0.9,-1.9
CC1Cc2ccccc2N1C(=O)COC(=O)c1ccc(Br)o1 (stereo not given),0,29,97,102,i,1.1,x
CCn1cc(C(=O)N2CC(C)CC(C)C2)c(=O)c2cc(S(=O)(=O)N3CCOCC3)ccc21 (stereo not given),6,x,x,93,i,0.95,-3.3
Cn1nnc2c(NCc3ccco3)nccc21,5,x,x,95,i,1,-2.8
CC(C)CC(C(=O)Nc1oc(-c2ccccc2)c(-c2ccccc2)c1C#N)N1C(=O)c2ccccc2C1=O (stereo not given),12,-369,71,99,u,x,-0.5
Cn1c(=O)c2cn(-c3ccc4c(c3)OCCO4)cc2n(C)c1=O,-9,x,x,105,i,0.79,-1.6
CC1(c2ccc(Cl)cc2)NC(=O)CS1 (stereo not given),0,x,x,108,i,0.97,x
CCCCn1c2ccccc2c2cc(CC(N)=O)ccc21,x,x,x,107,i,1,x
COc1cc(/C=C2\C(=O)N(CCC#N)N=C2C)ccc1OCC(=O)Nc1ccccc1,-6,3,54,100,i,1.1,-0.8
O=C(N/N=C/c1cn(-c2ccccc2)nc1-c1cccs1)c1ccncc1,11,0,113,109,i,0.89,0.4
CO/N=C/C1CCN(c2ncc(C(F)(F)F)cc2Cl)C1=O (stereo not given),4,x,x,103,i,0.69,x
CCn1c(CC(=O)Nc2ccccc2F)nnc1SCC(=O)N1CCN(c2ccccc2)CC1,3,-90,101,97,i,1,-1.7
O=C(c1cccc(N2C(=O)C3CC=CCC3C2=O)c1)N1CCN(c2ccccc2)CC1 (stereo not given),-11,11,38,94,x,x,-3.2
O=C(Oc1ccc(OC(=O)c2ccco2)c(S(=O)(=O)c2ccc(Br)cc2)c1)c1ccco1,-12,20,115,100,i,0.9,-1.4
CS(=O)(=O)NN1C(=O)c2ccccc2NC1c1c[nH]c2ccccc12 (stereo not given),-14,x,x,104,i,1.2,-2.5
COc1cc(/C=N/Nc2nc(C)cc(=O)[nH]2)ccc1OC(=O)c1cccnc1,-5,7,151,109,i,1,x
CN(C)C(=O)c1c([N+](=O)[O-])c(C(C)(C)C)nn1C,9,-14,95,30,i,0.94,-0.1
Brc1ccc(NC2=Nc3ccccc3CC2)cc1,0,-22,259,98,i,0.92,-1.1
Cc1nc(C)c(C(=O)NCc2ccccc2Cl)o1,-7,43,54,102,i,1.1,-0.3
Cc1nnc2sc(-c3ccc(NC(=O)c4ccc(-c5ccc(Cl)cc5Cl)o4)cc3)nn12,3,67,107,x,i,0.77,-3.0
COc1ccc(C(C)=O)c(OC(=O)c2ccc(OC)c(OC)c2)c1,-3,13,118,100,i,1,-0.6
CN(C)c1nc(-c2ccccc2)ncc1S(=O)(=O)c1ccccc1,-4,x,x,94,i,0.95,x
CCOC(=O)C1CSc2[nH]c(=O)sc2C1c1ccccc1 (stereo not given),9,19,82,97,i,0.88,1.1

Overlap with the part before: 7 entries; new compounds follow.
compound,PKD1 inh,Insulin prom inh,Insulin prom inh cell count,RGS16-Gao,HSV replic up,HSV replic up primary fold,GALR2 ag
CN(C)C(=O)c1c([N+](=O)[O-])c(C(C)(C)C)nn1C,9,-14,95,30,i,0.94,-0.1
Brc1ccc(NC2=Nc3ccccc3CC2)cc1,0,-22,259,98,i,0.92,-1.1
Cc1nc(C)c(C(=O)NCc2ccccc2Cl)o1,-7,43,54,102,i,1.1,-0.3
Cc1nnc2sc(-c3ccc(NC(=O)c4ccc(-c5ccc(Cl)cc5Cl)o4)cc3)nn12,3,67,107,x,i,0.77,-3.0
COc1ccc(C(C)=O)c(OC(=O)c2ccc(OC)c(OC)c2)c1,-3,13,118,100,i,1,-0.6
CN(C)c1nc(-c2ccccc2)ncc1S(=O)(=O)c1ccccc1,-4,x,x,94,i,0.95,x
CCOC(=O)C1CSc2[nH]c(=O)sc2C1c1ccccc1 (stereo not given),9,19,82,97,i,0.88,1.1
CCOc1ccccc1N1CCN(C(=O)C(Sc2ccccc2)c2ccccc2)CC1 (stereo not given),-8,x,x,100,i,0.88,-2.5
Cc1cccc(CSCCNC(=S)Nc2ccccc2)c1,-4,50,123,105,i,0.98,1.0
CC(C)NC(=O)COC(=O)c1ccc(NS(=O)(=O)c2ccc3c(c2)OCCO3)cc1,0,-25,84,101,i,0.75,-2.3
COc1ccc(C2CC(=O)Nc3cc(C)c(C)cc32)c(OC)c1OC (stereo not given),-7,-392,91,100,i,0.97,-0.9
N#C/C(=C\c1cccc(Oc2ccccc2)c1)C(=O)N1CCOCC1,23,x,x,125,i,0.99,x
N#C/C(=C\c1cccs1)C(=O)Nc1ccccn1,x,x,x,101,i,0.98,x
Cc1ccc(NC(=O)c2ccc(CSc3nnnn3C)cc2)cc1,-7,0,143,103,i,0.92,-3.1
Nc1sccc1C(=O)c1ccc(Cl)cc1,-4,-47,133,188,i,1,0.1
COC(=O)c1cc(Br)c(=O)n(Cc2cccnc2)c1,4,-61,137,108,i,1,0.7
C=CCn1c(C)cc(C(=O)COC(=O)/C=C/c2cccc(OC)c2)c1C,-11,12,44,115,i,1,x
COc1cc(NC(=O)CN2C(=O)C(c3ccccc3)=NC2(C)C)cc(OC)c1,-4,x,x,103,i,0.87,x
Cc1ccc(N(CC(=O)Nc2ccccc2C(=O)NCc2ccco2)S(=O)(=O)c2ccccc2)cc1C,-6,-27,113,101,i,0.93,0.2
Fc1ccc(-c2cnc3n2CCCCC3)cc1,1,x,x,102,i,0.97,x
O=C(Nc1ccc2c(c1)OCO2)NC1(C(F)(F)F)Oc2ccccc2O1,-8,15,106,101,i,0.84,-1.2
Cc1nn(Cc2ccc(Cl)cc2)c2sc(C(=O)OCC(N)=O)cc12,-1,21,64,105,i,1,-1.7
Cc1ccc(-c2nc3ncccn3c2NC2CCCC2)o1,1,-57,103,100,i,1.1,-2.0
Cc1cccc(C)c1NC(=O)CSc1nc2ccccc2c(=O)[nH]1,-4,x,x,102,i,0.83,-1.8
COc1ccc(NC(=O)/C(=C/c2ccc3c(c2)OCO3)NC(C)=O)cc1,-19,-15,88,101,i,0.99,-0.9
CCOC(=O)c1c(/N=C/C2C(=O)CCCC2=O)sc(C)c1C,-4,13,132,104,i,0.94,-1.3
CCC(=O)NNC(=O)CCC(=O)Nc1ccc(C)cc1C,-7,x,x,100,i,0.97,x
Cc1c(Cl)cccc1NC(=O)CSc1ncnc2c1cnn2CCc1ccccc1,-2,41,118,102,i,0.92,-2.2
Clc1ccccc1SCc1nc2ccccc2[nH]1,-1,4,152,103,i,1,-2.8
Cc1cc(NC(=O)COC(=O)c2cc(S(=O)(=O)N(C)c3ccccc3)ccc2Cl)no1,x,x,x,97,i,0.98,x
COC(=O)c1ccc(NS(=O)(=O)c2ccc(OC)cc2)cc1,-11,33,112,98,i,0.97,-1.1
COc1ccc(NC(=S)N2CCC(C(=O)c3ccc(F)cc3)CC2)c(OC)c1,3,0,61,99,i,1,x
O=C(c1ccc(COc2ccccc2Cl)o1)N1N=C(C(F)F)CC1(O)C(F)F (stereo not given),9,20,133,106,i,0.89,-0.9
CC1CN(CCCCOc2ccc(F)cc2)CC(C)O1 (stereo not given),-5,x,x,100,i,0.88,x
Nc1ccc(N=Nc2ccc(N)cc2)cc1,-6,-67,60,99,i,1,x
CC(=O)c1ccc(NC(=O)C2CCCNC2=O)cc1 (stereo not given),-11,31,145,90,i,0.91,-1.1
COc1cccc(-c2nc3n(n2)C(c2ccccc2Cl)C(C(N)=O)=C(C)N3)c1 (stereo not given),-11,x,x,104,i,1.4,-1.2
COc1cc(C)ccc1OCCOc1c(C)cc(Cl)cc1Cl,-2,-13,84,111,i,1,-0.4
CC1Cc2ccccc2N1C(=O)CSC1=NCCS1 (stereo not given),-12,-9,81,92,i,1.1,-0.7
O=C(N/C(=C/c1ccc(Br)cc1)C(=O)N1CCCC1)c1cccs1,6,-47,93,104,i,1,x
CCc1nnc(-n2nc(C)cc2-c2ccccc2)n1N,-5,-8,139,96,i,0.9,-3.1
CC(C)(C)n1nnnc1C(c1cccs1)N1CCCC2(CCCCC2)C1 (stereo not given),-11,-220,99,110,i,0.8,-1.2
O=S1(=O)[C@H]2C[C@@H]3C=C[C@]2(CN1Cc1ccc(C(F)(F)F)cc1)O3,x,x,x,100,i,0.79,x
COc1nnc(-c2ccc(N3CCCCC3)c(N)c2)c2ccccc12,-10,3,161,x,i,0.91,-1.1
Fc1ccccc1CSc1nnc2ccc(-c3ccncc3)nn12,0,x,x,108,i,0.89,x
Cc1ccc(NC(=O)CN(C)CC(=O)Nc2ccccc2C#N)cc1,-6,x,x,103,i,1.1,x
O=C(NCCCN1CCCC1)c1cc(Sc2ccc(F)cc2)nc2ccccc12,-2,50,173,97,i,0.94,x
CCCCn1c(-c2ccsc2)nc2c1c(=O)[nH]c(=O)n2CCC,-2,33,60,99,i,0.79,0.5
Cc1cccc(C(=O)N2CCc3c([nH]c4ccccc34)C2CC(C)C)n1 (stereo not given),6,x,x,98,i,0.99,x
COc1cccc(C2C(C#N)=C(N)Oc3cc(N)ccc32)c1OC (stereo not given),-20,14,117,92,i,1,-1.7
CC(C)Oc1ccc(NC(=O)C2CCCNC2=O)cc1 (stereo not given),-3,-6,92,100,i,0.84,-2.0
CCN(CC)CCNC(=O)CNC(=S)N(CCCN1CCOCC1)Cc1cccs1,-3,x,x,96,i,1,x
CCc1ccc2[nH]c(=O)c(CN(Cc3ccc(OC)cc3)Cc3nnnn3CCOC)cc2c1,-13,x,x,106,i,0.94,-2.6
CCCOC(=O)C1=C(C)NC2=C(C(=O)C(C(=O)OC)C(C)C2)C1c1ccc(N(C)C)cc1 (stereo not given),-5,3,100,102,i,0.94,-1.9
CCN(CCO)C1CC(=O)N(c2ccccc2C)C1=O (stereo not given),-7,-84,62,102,i,1.1,-2.8
CCCCn1nnnc1SCC(=O)c1ccccc1F,-3,14,125,103,i,0.99,x
CCc1ccc(NC(=O)CSc2nc3ccccc3c(=O)n2CCCC(=O)NCCCN2CCOCC2)cc1,0,-73,67,99,i,0.71,x

Other entries
compound,PKD1 inh,Insulin prom inh,Insulin prom inh cell count,RGS16-Gao,HSV replic up,HSV replic up primary fold,GALR2 ag
Cc1cc(=O)oc2c(C(=O)/C=C\c3cccs3)c(O)ccc12,9,-39,110,105,i,0.7,0.1
CN(C)S(=O)(=O)c1cccc(-c2nnc(SCc3ccc4c(c3)OCCO4)o2)c1,-11,11,78,66,i,0.95,-0.9
CC1CCCN(C(=O)C2CCN(CC3CC=CCC3)CC2)C1 (stereo not given),1,x,x,107,i,1,-0.9
CCOc1cc(C2NC(=O)NC(c3ccccc3)=C2C(=O)c2ccccc2)c(Br)cc1OCC(=O)O (stereo not given),-7,x,x,104,i,1.1,x
CCOC(=O)N1CCN(C(=O)C2CCCCC2)CC1,0,7,99,95,i,1.1,0.7
